Ab BasE inh = BasE siderophore biosynthesis inhibition; purified BasE, fluorescence polarization binding displacement; inhibition, % (test concentration not listed); hit rate 0.1% among 84,000;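 active means both replicates above 25% with normal brightness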;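 further: 0% = negative plate control signal and 100% = positive plate control signal; stock transfer was 100 nL into about 30 µL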
KSHV LANA nucl = LANA-nucleosome interaction inhibition; FITC-LANA1-23 / chicken nucleosome fluorescence polarization; stronger effect = lower value; z-score (concentration not given with the values); hit rate 0.3% among 51,000; AID 720717;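 active means both repeat wells score below -2 in polarization z-score versus plate sample wells, excluding overly bright wells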;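 further: 100 nL library stock added to about 30 µL; numbers are from one replicate; some results filed as inactive read as strong as hits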
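Assay system: FITC-LANA peptide and chicken nucleosomes; input: 240 nM purified chicken nucleosomes (480 nM peptide binding sites), final; also added: 50 nM FITC-LANA1-23 probe; medium: TEN-BT buffer, pH 7.5; doses: pin-transferred compound, 100 nL; times: 10–45 min, room temperature; technique: fluorescence polarization; replication: duplicates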
Active calls of the source: *; . = not tested or not shown. An excerpt; count on the stated rates, not on these rows.

SMILES | Ab BasE inh | KSHV LANA nucl
O=C(CNC(=O)c1ccc(Cl)cc1)c1ccc(Cl)cc1 | 1.5 | .
CSc1ccc(/C=N/OCc2ncc(-c3ccccc3)o2)cc1 | -1.0 | .
CC1C/C(=C/c2cccnc2)C(=O)/C(=C/c2cccnc2)C1 (stereo not given) | -0.2 | .
COc1cc(S(=O)(=O)n2cnc3cc(C)c(C)cc32)c(C)cc1C | -4.5 | 1.4
CC(=O)Nc1cnn(-c2ccccc2)c(=O)c1Cl | 0.6 | -0.93
CCOc1ccc(S(=O)(=O)NCCC(=O)NC2=NCCS2)cc1 | 0.5 | .
COc1ccc(-n2cc(C#N)c(=O)n(Cc3ccccc3)c2=O)cc1 | 1.1 | -0.45
CCSc1sccc1C1C(C#N)=C(N)N(c2cccnc2)C2=C1C(=O)CCC2 (stereo not given) | 1.0 | -0.54
COc1ccc(CCCc2nnc(SCC(=O)NN)o2)c(C)c1 | -1.6 | -0.8
[S-]c1n[n+]2cccnc2s1 | -0.4 | .
NS(=O)(=O)c1ccc(NC(=O)NCC2CCCC(CNC(=O)Nc3ccc(S(N)(=O)=O)cc3)C2)cc1 (stereo not given) | -5.6 | .
Cc1ccc2c(CC(=O)OCc3nc(N)nc(Nc4ccccc4C)n3)coc2c1 | 0.4 | .
CN=C(Nc1ccc(OC)cc1)c1ccccc1 | -1.1 | .
Clc1ccccc1N1CCN(Cc2ccsc2)CC1 | -1.2 | -0.54
CCn1c(SCC2CCCCO2)nnc1-c1cccs1 (stereo not given) | 2.8 | .
CC(C)NC(=O)CCc1nc2ccccc2c(=O)[nH]1 | 1.2 | .
Cc1ccc(C(=O)OCC(=O)NC2CC2)cc1S(=O)(=O)N1CCOCC1 | -2.3 | .
Cn1ccnc1C(=O)c1cc(Sc2nnnn2-c2ccccc2)nc2ccccc12 | 2.7 | .
CCOc1ccc2nc(SCC(=O)NCC3CCCO3)c(C#N)cc2c1 (stereo not given) | -1.5 | -0.52
NC(=NCCc1ccccc1)Nc1nc2ccccc2[nH]1 | 2.5 | -0.64

3 entries from above, arranged by number of heavy atoms, lowest first.
SMILES | Ab BasE inh | KSHV LANA nucl
NC(=NCCc1ccccc1)Nc1nc2ccccc2[nH]1 | 2.5 | -0.64
CC1C/C(=C/c2cccnc2)C(=O)/C(=C/c2cccnc2)C1 (stereo not given) | -0.2 | .
NS(=O)(=O)c1ccc(NC(=O)NCC2CCCC(CNC(=O)Nc3ccc(S(N)(=O)=O)cc3)C2)cc1 (stereo not given) | -5.6 | .

Next part
SMILES | Ab BasE inh | KSHV LANA nucl
CC(C)Sc1nnnn1-c1ccccc1 | 0.3 | -1.4
CCc1ccc(Nc2nnc(SCC(=O)NC3(C#N)CCCC3)s2)cc1 | 0.5 | .
O=C1c2c(-c3ccc(Cl)cc3)csc2NC2CCCN12 (stereo not given) | 2.2 | .
O=C(Cn1nnc(-c2ccccc2)n1)N1CCc2ccccc21 | 0.2 | .
O=C1CC2Sc3ccccc3N=C2N1Cc1ccccn1 (stereo not given) | 0.7 | .
CN1CCC(NC(=O)C2CCCO2)CC1 (stereo not given) | 0.5 | -0.82
O=C(c1cc(NS(=O)(=O)c2cccs2)cc(NS(=O)(=O)c2cccs2)c1)N1CCCCC1 | -1.4 | .
O=C(CNC(=O)c1ccc(C(F)(F)F)cc1)NC1CC1 | 0.7 | .
COc1ccc(Cl)cc1-c1nc(SCC(=O)N2C(C)CCCC2C)n[nH]1 (stereo not given) | -1.1 | .
C/C(=N\NC(=O)CNc1cccc(C(F)(F)F)c1)C1CC1 | 0.1 | .
O=C(CSc1nnc(Cc2ccccc2)n1Cc1ccccc1)N1CCCC1 | 0.3 | -1.1
CCc1ccc(NC(=O)c2cccc(NC3=NC4CS(=O)(=O)CC4S3)c2)cc1 (stereo not given) | -2.7 | 0.12
COC(=O)Cc1cc(=O)[nH]c(SCC2CCCCO2)n1 (stereo not given) | 2.4 | .
O=C(NCc1ccccc1)N(Cc1cccnc1)Cc1cc2cc3c(cc2[nH]c1=O)OCCO3 | 14 | -0.98
C=CCn1c(C)nnc1SCC(=O)c1ccc2ccccc2c1 | -3.2 | .
CCOC(=O)c1cc2c(ccn2C)n1Cc1c(Cl)cccc1Cl | -0.6 | -1.1
CCC12CC3CC(O)(CC(O)(C3)C1)C2 | 1.0 | .
CNC(=S)N1CCN(C(=O)/C(=C/c2ccc(F)cc2)NC(C)=O)CC1 | -0.4 | -0.24
O=C(Cn1cc(C(F)(F)F)ccc1=O)NCC(F)(F)F | 2.5 | .
COc1cc(C#N)ccc1OCC(N)=O | 0.2 | -0.34
Cc1noc(-c2ccccc2)c1NC(=O)NCC1COc2ccccc2O1 (stereo not given) | 0.5 | 0.026
CC1=C/C(=C\c2c(O)n(-c3cccc(C)c3)c(=O)[nH]c2=O)C(C)=N1 | -19 | 3.3
CCNc1nc(NCC)n2c(SCC(=O)c3c[nH]c4ccccc34)nnc2n1 | -0.1 | .
Cc1nn(-c2ccccc2)nc1C(=O)ON1C(=O)C2C3C=CC(O3)C2C1=O (stereo not given) | 0.0 | .
N#Cc1cccc(CS(=O)(=O)c2ccc(Cl)cc2)c1 | 0.0 | 0.5
COc1cc(CCC(=O)NC(C)C(c2ccccc2)N2CCOCC2)cc(OC)c1OC (stereo not given) | -1.2 | .
C/C(=N\NC(=O)Cc1ccc(Cl)cc1)c1ccccc1O | 3.3 | 0.2
CNc1nc(-c2cccc(N)c2)cs1 | . | -0.28
C=CCn1c(Cc2c[nH]c3ccccc23)nnc1SCC(=O)Nc1ccc(OC)cc1 | -4.7 | .
CCCCn1c(=O)n(Cc2cc(=O)n3ccsc3n2)c(=O)c2c1ncn2Cc1ccco1 | 3.3 | .
O=C(NCCCN1CCCC1=O)c1ccc(Cl)c(NS(=O)(=O)c2ccc(F)cc2)c1 | 1.0 | .
Cc1ccc(C)c(-n2nnnc2SCC(=O)OCC(=O)c2cc(C)n(-c3ccc4c(c3)OCO4)c2C)c1 | -1.3 | .
O=C(Nc1nnc(-c2ccccc2)o1)C1CCN(C(=O)/C=C/c2ccccc2)CC1 | -0.4 | .
Cn1nc(NC(=O)COCC(=O)O)c2ccccc21 | 1.3 | -0.8
CCOC(=O)c1c(C)n(-c2ccc(OC)cc2)c2ccc(Oc3ncccc3C#N)cc12 | -0.8 | 0.12
CC(=O)N1CC(=O)N=C1SCC(=O)Nc1nc(-c2ccccc2)cs1 | -1.5 | .
CCOc1ccc(NC(=O)CCC(C(=O)O)C(C)C)cc1 (stereo not given) | -0.4 | -0.77
CN(C)c1ccc(-c2nnc(-c3cccnc3)o2)cc1 | -1.9 | -0.14
O=C(O)c1ccc(-n2nnnc2SCC(=O)N2CCOCC2)cc1 | 0.9 | .
Cc1n[nH]c(=O)c2c(NC(=O)COC(=O)CC3(Cc4nc5ccccc5s4)CCCC3)oc(C)c12 | 0.5 | .

As entered above.
CC1=C/C(=C\c2c(O)n(-c3cccc(C)c3)c(=O)[nH]c2=O)C(C)=N1 in KSHV LANA nucl → 3.3
CCOc1ccc(NC(=O)CCC(C(=O)O)C(C)C)cc1 (stereo not given) in KSHV LANA nucl → -0.77
Cc1n[nH]c(=O)c2c(NC(=O)COC(=O)CC3(Cc4nc5ccccc5s4)CCCC3)oc(C)c12 in Ab BasE inh → 0.5
C=CCn1c(Cc2c[nH]c3ccccc23)nnc1SCC(=O)Nc1ccc(OC)cc1 in Ab BasE inh → -4.7
CCNc1nc(NCC)n2c(SCC(=O)c3c[nH]c4ccccc34)nnc2n1 in Ab BasE inh → -0.1

(further entries)
SMILES | Ab BasE inh | KSHV LANA nucl
C/C(=N\O)c1cc(Cl)cc(Cl)c1O | 4.5 | .
COC(=O)c1sc(NC(=O)COC(=O)/C=C/c2ccc(C)o2)c(C(=O)OC)c1C | -0.4 | .
CC(=O)Oc1ccccc1C(=O)Oc1cccc(C)c1 | 0.3 | 0.067
CCOC(=O)c1cc(C)n(CCCN2CCOCC2)c1C | 1.5 | 0.057
O=C(Oc1ccccc1N1CCCCC1)c1sccc1Cl | -0.1 | .
Cc1cc(=S)nc(C(C)C)[nH]1 | 2.3 | .
O=C(NC1CCN(C(=O)Nc2cccc(Cl)c2)CC1)C1CCCCC1 | -0.3 | 0.37
COc1ccc(Cn2c3ccccc3c3nc4ccccc4nc32)cc1 | -0.3 | .
CCc1ccc(C(=O)Cc2cc3cccc(OC)c3oc2=O)cc1 | -0.5 | .
Cc1ccc2cc(CN(Cc3ccccc3)C(=O)C3CC3)c3nnnn3c2c1 | 0.7 | 0.47
CC(NC(=S)Nc1ccc(S(N)(=O)=O)cc1)c1ccncc1 (stereo not given) | -1.2 | 0.61
CC(C)(C)c1ccc(OCCn2ccccc2=O)cc1 | -0.1 | 0.45
COc1cc(-c2ccc(/C=C3\SC(=N)N(c4nccs4)C3=O)o2)c(OC)cc1Cl | -16 | 0.95
CC1CCCCN1C(=S)NC(=O)c1ccccc1Cl (stereo not given) | 1.9 | .
O=C(CN1CCN(S(=O)(=O)c2ccc(Br)cc2)CC1)c1ccc2c(c1)OCO2 | 0.7 | -0.088
CCCn1c(C)cc(C(=O)CSc2nnc(-c3cc(OC)c(OC)c(OC)c3)o2)c1C | 1.4 | .
NC(=O)C1CCN(C(=O)Nc2cccc(Cl)c2)CC1 | -0.2 | 0.35
CC(=O)Cn1cc(Cl)c(=O)c(Cl)c1 | . | 1.9
COc1ccc(NS(=O)(=O)c2ccc3oc(SCC(=O)Nc4ccc5c(c4)OCO5)nc3c2)cc1 | 1.1 | .
O=C(Cn1cc(/C=C2\NC(=S)N(c3ccccc3)C2=O)c2ccccc21)NCc1ccco1 | 13 | -2.3*

Part of the list above, reformatted.
> O=C(CN1CCN(S(=O)(=O)c2ccc(Br)cc2)CC1)c1ccc2c(c1)OCO2
  Ab BasE inh: 0.7
  KSHV LANA nucl: -0.088

> CCCn1c(C)cc(C(=O)CSc2nnc(-c3cc(OC)c(OC)c(OC)c3)o2)c1C
  Ab BasE inh: 1.4
  KSHV LANA nucl: .

> NC(=O)C1CCN(C(=O)Nc2cccc(Cl)c2)CC1
  Ab BasE inh: -0.2
  KSHV LANA nucl: 0.35

> CC(=O)Cn1cc(Cl)c(=O)c(Cl)c1
  Ab BasE inh: .
  KSHV LANA nucl: 1.9

(next part)
SMILES | Ab BasE inh | KSHV LANA nucl
CCOC(=O)c1c(NC(=O)CSc2nnc3c4ccccc4n(CC)c3n2)sc2c1CCN(C)C2 | 2.6 | 0.69
Cc1ccc(OCC(=O)N2CCCCC2)cc1 | 4.9 | 0.076
Cc1ccsc1Cn1nccc1NC(=O)C1CC(=O)N(c2ccc3c(c2)OCCO3)C1 (stereo not given) | 0.4 | .
CC(=O)N/C(=C\c1cccs1)C(=O)O | 0.8 | .
O=C(Nc1ccccc1SCCS(=O)(=O)c1ccc(Cl)cc1)c1ccccc1Cl | -2.0 | .
COCc1cc(O)c(O)c(O)c1-c1c(COC)cc(O)c(O)c1O | -0.1 | -0.63
COc1ccc(Cn2c3nc(C#N)c(C#N)nc3c3c(=O)[nH]c(C)nc32)cc1 | -15 | .
COc1ccc(CCN=C2SCCN2C(=O)c2ccc(C#N)cc2)cc1 | -1.8 | .
Cc1cc(=O)[nH]c(O)c1C(=O)O | 0.2 | -0.67
Cc1ccc2nc(SC(C)C(=O)O)[nH]c2c1 (stereo not given) | -0.2 | -0.44
CC(OC(=O)c1cccc(Cl)c1)c1ccc[n+](C)c1 (stereo not given) | 2.2 | .
COc1cc(C)nc(NC(=O)Nc2cccc(Cl)c2)n1 | -0.9 | -0.48
CCOC(=O)/C=C1\SCC(=O)N1CC(O)c1ccccc1 (stereo not given) | 4.5 | .
Cc1ccc(CNC(=O)c2oc3ccc(C)cc3c2C)cc1 | -0.6 | 0.7
Cc1cc(=O)[nH]c(SCC(=O)c2ccc3c(c2)NC(=O)CO3)n1 | -1.4 | .
O=C(NCc1ccco1)C(c1ccccc1)N(CCc1ccccc1)C(=O)Cn1nnc2ccccc21 (stereo not given) | -3.6 | 1.8
CSc1ccccc1C(=O)NCC(C)C | 0.8 | 0.72
CCN1C/C(=C\c2ccc(OC)cc2)C(=O)/C(=C/c2ccc(OC)cc2)C1 | 1.7 | 0.45
O=C(O)c1c(Cl)c(Cl)c(Cl)c(Cl)c1C(=O)N1CCCC1 | -0.9 | 1.4
COc1cc(OC)cc(C(=O)Nc2ccc(CN3CCCCC3)cc2)c1 | -0.6 | -0.63
Cc1c(C(=O)Nc2cc(Cl)ccc2-n2cncn2)[nH]c2c1C(=O)CC(C)(C)C2 | -0.9 | .
COc1ccccc1C1CC(=O)Nc2sc3c(C)c(C#N)c(N)nc3c21 (stereo not given) | -1.2 | 2.1
O=C(CC1SC(=O)NC1=O)Nc1ccc(F)cc1 (stereo not given) | -2.9 | 1.9
CSc1cccc(NC(C)C(=O)NCc2ccccc2)c1 (stereo not given) | -2.1 | .
CN(CC(=O)N1CCOCC1)c1ncnc2scc(-c3ccc(F)cc3)c12 | 1.1 | .
CN(C)S(=O)(=O)c1ccc(=O)n(CC(=O)c2c[nH]c3ccccc23)c1 | -0.9 | .
Cc1cc(C)cc(N(CC(=O)NCc2ccco2)C(=O)c2snc(C(N)=O)c2N)c1 | -0.5 | 0.47
CCOc1ccc2c(c1)c1nnc(SCC3CCCO3)nc1n2C (stereo not given) | -1.4 | -0.33
CC1CCN(C(=O)CCC(=O)c2ccc3c(c2)OCCCO3)CC1 | 1.0 | .
COc1ccc(NC(=O)c2ccc3snnc3c2)cc1 | 0.9 | 0.12
Cc1ccc(Cn2c(C)cc(C)c(C#N)c2=O)cc1 | -0.6 | -1.1
CC(=O)NC(=S)N[C@@H]1O[C@H](COC(C)=O)[C@@H](OC(C)=O)[C@H](OC(C)=O)[C@H]1OC(C)=O | 0.6 | -0.45
CN(C)CCN(Cc1ccc(Cl)cc1)c1ccccn1 | -1.7 | 0.11
COc1cccc(NC(=O)C(Sc2nnc(-c3ccccc3)o2)c2ccccc2)c1 (stereo not given) | 2.9 | .

Bioassay records (PubChem)
